CSC inhib = cancer stem cell inhibition | 1.1% of 300,000 active | inhibition, % at 7.5 µM | cancer stem cell-like cells viability, luminescence;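 active means mean at 75% or more and at least half the replicates too; inconclusive means mean and replicates disagree; tested in HMLE shEcad cells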;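 further: 0% = median of negative and 100% = median of positive control wells; the first replicate is given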
Rce1 inhib = yeast Ras-converting enzyme inhibition; calls only; 0.27% of 290,000 active; AID 2563; Q03530; yeast membranes, quenched prenylated peptide cleavage fluorescence;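 active means fall in fluorescence gain of 50% or more versus controls, with final raw signal at or below 3038400; inconclusive means same 50% fall but final raw signal above 3038400; inactive means fall in fluorescence gain under 50%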;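 further: plate controls were neutral control wells for no effect and wells lacking membranes for full effect; tested at 10 µM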
eIF4H FP inh = inhibitors of RNA binding by human eIF4H; inhibition, % at 35 µM; 0.94% of 290,000 active; Q15056; eIF4H fluorescence polarization binding assay; AID 2012;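 active means 50% or more with normal probe brightness, or confirmed in later tests; inconclusive means above 50% with abnormal brightness, or retests that disagree; inactive means below 50% or failed in later tests; about a fifth of its hits are not listed in these tables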;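 further: calls also rest on retests at 20 µM and on dose response follow-up; 0% = protein and probe with vehicle and 100% = probe without protein; strong numbers were not always called active; many hits fall short of the cut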
PABP FP inh = blocks human PABP binding to poly(A) RNA; fluorescence polarization; inhibition, % at 35 µM; 1% of 290,000 active;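 active means 50% or more with normal probe brightness, or confirmed in later tests; inconclusive means above 50% with abnormal brightness, or retests that disagree; inactive means below 50% or failed in later tests; about a fifth of its hits are not listed in these tables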;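 further: calls also rest on retests at 20 µM and on dose response follow-up; controls were probe without protein and protein plus probe with vehicle; some compounds called inactive have numbers as strong as hits; many hits fall short of the cut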
Target sequence (P11940 whole entry, looked up): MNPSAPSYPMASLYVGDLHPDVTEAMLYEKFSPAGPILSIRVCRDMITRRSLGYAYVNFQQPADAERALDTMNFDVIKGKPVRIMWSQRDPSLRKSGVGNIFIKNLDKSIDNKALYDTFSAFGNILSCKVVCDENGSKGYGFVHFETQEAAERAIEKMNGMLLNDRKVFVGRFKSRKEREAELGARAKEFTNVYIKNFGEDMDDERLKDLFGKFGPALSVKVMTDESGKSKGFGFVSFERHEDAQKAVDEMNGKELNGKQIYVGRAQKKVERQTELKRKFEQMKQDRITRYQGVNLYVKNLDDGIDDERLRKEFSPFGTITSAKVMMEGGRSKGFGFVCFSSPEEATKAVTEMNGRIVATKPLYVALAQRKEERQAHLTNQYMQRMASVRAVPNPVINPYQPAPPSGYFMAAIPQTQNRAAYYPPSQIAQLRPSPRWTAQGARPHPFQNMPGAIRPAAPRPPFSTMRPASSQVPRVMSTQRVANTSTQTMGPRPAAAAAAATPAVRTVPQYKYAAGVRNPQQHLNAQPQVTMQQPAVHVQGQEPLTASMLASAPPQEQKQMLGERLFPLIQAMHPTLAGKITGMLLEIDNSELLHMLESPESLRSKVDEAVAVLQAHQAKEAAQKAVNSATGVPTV
Env fusion inh = blocks HIV Env-driven cell-cell fusion | HeLa-JRFL Env/CEM21 cell fusion, luciferase | 1.1% of 360,000 active | AID 651610 | inhibition, % at 12.3 µM;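 active means mean replicate inhibition score of at least 50 and every replicate individually at or above 50; inconclusive means only one of the two criteria met; inactive means mean below 50 and not all replicates reaching 50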;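 further: 0% = plate neutral controls and 100% = maraviroc near 300 nM; one replicate is shown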
MT1-MMP act inh = MT1-MMP (human) activation inhibition. HT1080 RFP-PRO-GFP cells, GFP/RFP ratio fluorescence, overnight; percent of plate control window, DMSO zero. GFP/RFP ratio change, % at 20 µM. 0.061% of 360,000 active;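 active means GFP/RFP ratio change of at least 30% with cell ATP level not reduced by more than half and red fluorescence within 50% of control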; further: strong numbers were not always called active
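Test system: HT1080 cells expressing an RFP-PRO-GFP fluorescent reporter construct / Compound dosing: single-point 20 µM compound, 1% DMSO / Schedule: cells overnight before dosing, compound overnight, 37 °C, 5% CO2 / Evaluation: GFP/RFP fluorescence ratio / Control set: DMSO and RFP-L50D-GFP cell wells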
Yeast UUG start = modulators of start codon recognition fidelity in yeast. activity score, % at 18.7 µM. S. cerevisiae UUG-firefly luciferase reporter, luminescence/redox ratio. 0.13% of 350,000 active;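 active means replicate mean at a twofold rise or more, about +100% in these data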;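 further: firefly luciferase made from a UUG start codon reports start codon fidelity; reporter light over untreated wells divided by growth signal over untreated wells; some hits fall short of that in this replicate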
MT1-MMP act inh RFP = further read-out of MT1-MMP act inh, marked with its call; RFP signal change, %; measured here: RFP expression control read;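 0 = vehicle wells; hits needed this value within 50% of zero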
Active calls of the source: *; i = inactive; ? = inconclusive; · = not tested or not shown; + = active, no number; & = joins results of further samples. Rows were taken by chance; 2.9% or so of the library scored in one or more.

SMILES	CSC inhib	Rce1 inhib	eIF4H FP inh	PABP FP inh	Env fusion inh	MT1-MMP act inh	MT1-MMP act inh RFP	Yeast UUG start
COCCn1c(SCc2csc(-c3ccccc3)n2)nc2ccccc21	-7	i	5	8	63	-2	-15	-11
Cc1ccc(NS(=O)(=O)c2cccc3cccnc23)c(Br)c1	3	i	-9	3	3	0	-3	·
O=C(Nc1ccc(Cl)cc1)Nc1nnc(SCc2ccc(Cl)cc2)s1	16	i	-2	26	-1	-11	-8	·
Cc1ccc(OCC(=O)Nn2c(C)nc3ccccc3c2=O)c(C(C)C)c1	4	i	-4	0	·	2	-9	-6
COc1cc(OC)c(C(=O)OC(C)C(=O)Nc2cc(C(F)(F)F)ccc2Cl)cc1OC (stereo not given)	16	i	16	9	19	2	-7	-4
CCOC(=O)c1sc(=S)n(-c2ccccc2)c1N(C(C)=O)C(C)=O	16	i	-1	-12	2	-1	4	-21
Cc1sc(NC(=O)CN(C(=O)c2ccccc2F)C2CCCC2)c(C(N)=O)c1C	1	i	-14	1	12	1	-4	-17
CCN1CCN(c2nc3c(c(=O)[nH]c(=O)n3C)n2CCCc2ccccc2)CC1	-22	i	15	0	14	-3	3	-5
Cn1ccnc1C(=O)c1ccccc1Cl	2	i	3	8	7	-1	3	-23
COc1ccc(C)cc1NC(=O)C(=O)NNC(=O)COc1ccc(Cl)cc1	12	i	-10	1	0	7	2	-23
O=C1Nc2ccccc2C1(O)Cc1ccncc1 (stereo not given)	8	i	1	-2	·	1	0	-24
Cc1cc(NC(=O)c2cc(-c3ccc(C)s3)nc3ccccc23)no1	5	i	-14	-10	-14	-2	0	3
O=C(c1cc(-c2ccc(Br)cc2)n[nH]1)N1CCN(C(=O)c2ccccc2Br)CC1	-4	i	4	-1	11	2	-16	-15
CS(=O)(=O)c1ccc2nc(NC(=O)c3ccccc3)sc2c1	8	i	-5	8	-84	3	2	-28
O=C(C1CCCCC1)N1CCN=C1SCc1cccc([N+](=O)[O-])c1	13	i	-3	-6	18	-2	-8	-10
COc1cc(C2CC(=O)c3c([nH]c(C(=O)OCCOC(C)C)c3C)C2)cc(OC)c1OC (stereo not given)	-8	i	-2	-22	55*	14	-30	3
O=S(=O)(c1ccc(=S)[nH]c1)N1CCOCC1	-28	·	·	·	11	3	1	-21
CC(=O)c1ccc(NS(=O)(=O)Cc2ccc(Cl)cc2)cc1	·	i	-12	4	-43	1	4	-3
CCOC(=O)c1sc(N(Cc2ccccc2)C(=O)CSc2ncn[nH]2)nc1C	-8	i	-9	-2	·	0	-3	-14
O=C1C2CCCN2C(c2ccc(F)cc2)N1c1nccs1 (stereo not given)	-11	i	3	-7	-194	-2	1	-10
CCC(=O)N/N=C(\C)CC(=O)Nc1ccccc1-c1ccccc1	-8	i	1	16	-1	2	0	·
CN(C(=O)c1cccc(NC(=O)Cc2cccc([N+](=O)[O-])c2)c1)C1CCCCC1	-7	·	·	·	-34	-3	-17	9
CCOc1ccccc1NC(=O)CSC1=NN2CCCC(=O)N=C2S1	3	i	4	7	15	-1	-1	-9
COc1ccc(/C=N\NC(=O)c2ccccc2)cc1COc1ccccc1	-5	i	-6	7	·	3	-4	-16
O=C(Nc1cccnc1)Nc1ccccc1Cl	-4	i	3	8	-203	5	3	-14
COc1ccc(S(=O)(=O)NCC(c2ccc(C)cc2)N2CCN(C)CC2)cc1 (stereo not given)	·	i	·	·	2	-7	1	-5
O=[N+]([O-])c1cc([N+](=O)[O-])c2nonc2c1Nc1ccc(O)cc1	-9	i	15	8	22	8	7	-10
O=C(CSc1nnc2ccc(-c3cccnc3)nn12)Nc1ccc(F)cc1F	·	i	-6	10	-6	14	9	-13
CCCNC(=O)CS(=O)(=O)Cc1nc(-c2cccc(OC)c2)oc1C	-10	i	10	-3	15	1	5	-10
CC(C)(C)c1ccc(/C=C/C(=O)N2CCN(c3ncccn3)CC2)cc1	9	i	-7	-15	-21	2	1	·
Cn1c(-c2ccccc2)c[n+]2c1-c1ccccc1C2	5	i	5	-2	57*	3	-2	·
COc1ccc(-n2nc(C(=O)NCC(=O)N3CCN(c4ccc(F)cc4)CC3)c3ccccc3c2=O)c(OC)c1	-10	i	-10	-5	-9	-4	-1	17
CN(c1ccc(Cl)cc1)S(=O)(=O)c1nnc(NC(=O)C(C)(C)C)s1	4	i	1	-1	-14	0	1	-8
COc1cc(OC)c(OC)cc1/C=C1\Oc2cc(OCC(=O)N3Cc4ccccc4C[C@H]3C(=O)O)ccc2C1=O	1	i	?	?	·	-72	5	7
Cc1ccc(NC(=O)c2cccnc2)cc1C	-13	i	-5	12	-13	-5	-4	-11
Cc1c(Cc2ccc3c(c2)OCO3)sc(NC(=O)C(C)(C)C)c1C#N	48	i	-3	7	·	-8	-17	-1
CCCCN(CC)C(=O)c1n[nH]c(=O)c2ccccc12	-5	i	-4	0	-26	1	5	2
O=C(CSc1nc2ccccc2c(=O)n1-c1ccccc1)N1CCc2ccccc21	-1	i	-1	-1	-37	-1	3	·
O=S(=O)(c1cccc(NC(=S)Nc2ccc(Br)cc2Cl)c1)N1CCOCC1	-3	i	2	2	·	-3	-3	-21
COc1cc(OC)cc(N(C(=O)C2COc3ccccc3O2)C(C(=O)NC2CCCCC2)c2ccc(O)cc2)c1 (stereo not given)	13	i	5	8	12	-51	-37	-9
O=C(CSc1nnc2c3c4c(sc3ncn12)CCCC4)NCc1ccco1	-10	i	-2	0	14	-2	5	·
CN(C(=O)Cc1c(C(=O)O)n(C)c2ccccc12)c1cccc(C(F)(F)F)c1	-4	i	8	-11	-10	2	5	-7
CCOc1ccc(CNC(=O)CCS(=O)(=O)Cc2ccccc2C)cc1OC	-9	i	0	-10	18	-1	4	·
CC12CCC(C(=O)NNC(=O)c3ccccc3)(OC1=O)C2(C)C (stereo not given)	-1	i	-4	-8	17	-4	1	-20
COc1ccc(NC(=O)CCCC(=O)NCCc2ccc(OC)c(OC)c2)cc1	-3	i	3	-1	7	-5	0	-8

4 entries from above, field by field.
Cc1ccc(OCC(=O)Nn2c(C)nc3ccccc3c2=O)c(C(C)C)c1
  CSC inhib: 4
  Rce1 inhib: i
  eIF4H FP inh: -4
  PABP FP inh: 0
  Env fusion inh: ·
  MT1-MMP act inh: 2
  MT1-MMP act inh RFP: -9
  Yeast UUG start: -6
COc1cc(OC)c(C(=O)OC(C)C(=O)Nc2cc(C(F)(F)F)ccc2Cl)cc1OC (stereo not given)
  CSC inhib: 16
  Rce1 inhib: i
  eIF4H FP inh: 16
  PABP FP inh: 9
  Env fusion inh: 19
  MT1-MMP act inh: 2
  MT1-MMP act inh RFP: -7
  Yeast UUG start: -4
CCOC(=O)c1sc(=S)n(-c2ccccc2)c1N(C(C)=O)C(C)=O
  CSC inhib: 16
  Rce1 inhib: i
  eIF4H FP inh: -1
  PABP FP inh: -12
  Env fusion inh: 2
  MT1-MMP act inh: -1
  MT1-MMP act inh RFP: 4
  Yeast UUG start: -21
Cc1sc(NC(=O)CN(C(=O)c2ccccc2F)C2CCCC2)c(C(N)=O)c1C
  CSC inhib: 1
  Rce1 inhib: i
  eIF4H FP inh: -14
  PABP FP inh: 1
  Env fusion inh: 12
  MT1-MMP act inh: 1
  MT1-MMP act inh RFP: -4
  Yeast UUG start: -17

7 compounds from above, reduced to MT1-MMP act inh RFP, CSC inhib and eIF4H FP inh.
Compound	MT1-MMP act inh RFP	CSC inhib	eIF4H FP inh
O=C(CSc1nc2ccccc2c(=O)n1-c1ccccc1)N1CCc2ccccc21	3	-1	-1
O=S(=O)(c1cccc(NC(=S)Nc2ccc(Br)cc2Cl)c1)N1CCOCC1	-3	-3	2
COc1cc(OC)cc(N(C(=O)C2COc3ccccc3O2)C(C(=O)NC2CCCCC2)c2ccc(O)cc2)c1 (stereo not given)	-37	13	5
O=C(CSc1nnc2c3c4c(sc3ncn12)CCCC4)NCc1ccco1	5	-10	-2
CN(C(=O)Cc1c(C(=O)O)n(C)c2ccccc12)c1cccc(C(F)(F)F)c1	5	-4	8
CCOc1ccc(CNC(=O)CCS(=O)(=O)Cc2ccccc2C)cc1OC	4	-9	0
CC12CCC(C(=O)NNC(=O)c3ccccc3)(OC1=O)C2(C)C (stereo not given)	1	-1	-4

4 entries out of the list, ordered by count of non-hydrogen atoms, smallest number first.
SMILES	CSC inhib	Rce1 inhib	eIF4H FP inh	PABP FP inh	Env fusion inh	MT1-MMP act inh	MT1-MMP act inh RFP	Yeast UUG start
Cn1c(-c2ccccc2)c[n+]2c1-c1ccccc1C2	5	i	5	-2	57*	3	-2	·
CCCCN(CC)C(=O)c1n[nH]c(=O)c2ccccc12	-5	i	-4	0	-26	1	5	2
CC12CCC(C(=O)NNC(=O)c3ccccc3)(OC1=O)C2(C)C (stereo not given)	-1	i	-4	-8	17	-4	1	-20
O=S(=O)(c1cccc(NC(=S)Nc2ccc(Br)cc2Cl)c1)N1CCOCC1	-3	i	2	2	·	-3	-3	-21

Going on with the list.
SMILES	CSC inhib	Rce1 inhib	eIF4H FP inh	PABP FP inh	Env fusion inh	MT1-MMP act inh	MT1-MMP act inh RFP	Yeast UUG start
CCN(CC(=O)NC1CCS(=O)(=O)C1)S(=O)(=O)c1ccc(C)cc1C (stereo not given)	-1	i	-9	1	-6	-2	1	-3
Cc1c(NC(=S)NC(=O)c2ccco2)c(=O)n(-c2ccccc2)n1C	-18	i	10	-8	-2	3	1	24
O=C(CNC(=O)c1cccc(Cl)c1)N/N=C/c1cccnc1	-4	i	31	6	-14	7	2	-13
Cc1ccccc1N(CC(=O)N/N=C/c1ccc(F)cc1)C(=O)c1ccccc1	-3	i	1	15	-31	6	2	-4
O=c1oc2c(CN3CCCCC3)c(O)ccc2cc1-c1nc2ccccc2[nH]1	·	·	?	?	·	-84	4	-8
COC(=O)c1ccc(NC(=O)c2ccc(C)cc2)o1	-5	i	1	3	·	2	0	-3
COc1ccc(Cn2c(-c3ccc(Cl)cc3)c[n+]3ccccc23)cc1	15	i	-4	14	-13	-20	-30	-11
Cc1ccc(NC(=S)NNC(=O)CSc2nc3ccccc3c(=O)n2-c2ccc(C)cc2)cc1	0	i	17	10	-62	-1	-4	·
CCOc1ccc(NCc2nnc(SCC(=O)Nc3cc(C)on3)n2-c2ccc(OC)cc2)cc1	·	i	0	1	·	0	2	-12
Cc1ccc2nc(-c3ccccc3)cn2c1	-18	+	1	2	·	-1	-1	-88
CN1CCC(=NNC(=O)C(=O)Nc2ccc(F)cc2)CC1	11	i	3	-9	-3	1	2	0
Cc1noc(C)c1NC(=O)Nc1ccc2c(c1)C(=O)N([C@H](C)CO)C[C@H](C)[C@@H](CN(C)S(=O)(=O)c1cn(C)cn1)O2	-16	·	·	·	-1	3	5	-16&-5
COc1ccccc1CNC(=O)COC(=O)c1c[nH]c2ccccc12	·	·	·	·	4	0	6	-2
CCC(CC)C(=O)Nc1cc(C(=O)NCCc2ccccc2)ccc1Cl	-1	i	8	3	-24	4	-4	-11
C=C(C)COC(=O)c1ccccc1C(=O)OCC1(C)CO1 (stereo not given)	·	·	·	·	0	-2	3	-18
Nc1ncnc(NNC(=O)CNC(=O)c2c(F)cccc2Cl)c1[N+](=O)[O-]	-3	i	7	-12	-5	1	4	·
CC1CCCC(C)N1C(=O)COc1ccc(-c2nnco2)cc1 (stereo not given)	-6	i	-4	2	-131	1	1	-9
